# Assay outcomes deposited in PubChem by Johns Hopkins Ion Channel Center.
# CHT block: inhibitors of human choline transporter CHT; AID 488975, 2010; CHT-expressing cells, membrane potential dye, choline response; active compounds read low; B-score at 10 µM; hit rate 0.86% among 310,000;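 active = B-score over 3 SD under the library average, and starting fluorescence ratio not unusually high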;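 note: choline stimulus applied at its EC90 after an EC20 pre-addition; B-score computed on integrated fluorescence ratio after choline addition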
# Target sequence (Q9GZV3 whole entry, looked up): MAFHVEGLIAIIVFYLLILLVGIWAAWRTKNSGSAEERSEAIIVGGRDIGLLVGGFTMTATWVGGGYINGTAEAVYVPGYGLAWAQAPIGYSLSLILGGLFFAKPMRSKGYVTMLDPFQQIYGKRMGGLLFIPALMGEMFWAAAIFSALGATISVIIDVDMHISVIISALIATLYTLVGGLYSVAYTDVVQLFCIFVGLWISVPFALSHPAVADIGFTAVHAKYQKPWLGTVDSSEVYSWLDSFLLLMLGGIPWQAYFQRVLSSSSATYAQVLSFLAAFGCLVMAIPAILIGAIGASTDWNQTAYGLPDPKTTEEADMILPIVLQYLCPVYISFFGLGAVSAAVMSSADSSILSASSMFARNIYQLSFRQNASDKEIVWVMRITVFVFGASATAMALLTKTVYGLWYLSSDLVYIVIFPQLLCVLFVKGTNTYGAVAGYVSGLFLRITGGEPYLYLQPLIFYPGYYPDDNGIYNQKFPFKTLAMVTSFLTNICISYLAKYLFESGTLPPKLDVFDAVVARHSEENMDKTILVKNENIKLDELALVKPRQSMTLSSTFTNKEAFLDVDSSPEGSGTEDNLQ
# Calls only; i = inactive.
SMILES,CHT block
Cc1ccc(-c2nc(CN3CCCCC3CCN3CCCC3=O)c(C)o2)o1 (stereo not given),i
CCOC(=O)c1cccc(NC(=O)C2(S(=O)(=O)c3ccc(C)cc3)CC2)c1,i
COc1ccc([N+](=O)[O-])cc1N1C(=O)c2cccc3cccc(c23)C1=O,i
CCOC(=O)c1c(C)n(C)c2ccc(OCC(N)=O)cc12,i
Cc1nc(C(C)N(C)Cc2nc(Cc3ccccc3F)no2)c(C)s1 (stereo not given),i
CCN1CCN(c2cc(C)c3cc(NC(=O)c4cc(OC)cc(OC)c4)ccc3n2)CC1,i
Cc1cc(C)n2nc(SCC(=O)N(C)c3c(N)n(Cc4ccccc4)c(=O)[nH]c3=O)nc2n1,i
COc1ccc(S(=O)(=O)Nc2cc3c4c(oc3c3ccccc23)CC(C)(C)CC4=O)cc1,i
COC(=O)c1cccc(NC(=O)c2cccs2)c1C,i
CNc1nc(Nc2ccc(C)c(Cl)c2)c2cnn(C)c2n1,i
COC(=O)C(C)N(C(=O)c1ccc(Cl)cc1)c1c(C)cccc1C (stereo not given),i
CCNC(=O)COC(=O)c1csc2c1CCCC2,i
Cc1cc(C)c(S(=O)(=O)n2c([N+](=O)[O-])cnc2C)cc1C,i
COC(=O)c1ccc(CSc2nncn2C)cc1,i
CC(C)CNC(=O)c1cc([N+](=O)[O-])ccc1N1CCOCC1,i
CC(C)(C)C(=O)Nc1nnc(SCc2ccc(F)cc2)s1,i
CCOc1ccc(CNc2cccc(SC)c2)cc1,i
Nc1ccc(-n2nnnc2CN2CCOCC2)cc1,i
CNC(=O)C(NC(=O)CNC(=O)c1ccc(Cl)cc1)C(C)(C)C (stereo not given),i
Cn1c(SCC(=O)NNC(=O)Cc2ccccc2)nc2ccccc2c1=O,i
O=S(=O)(N/N=C/c1ccc(OC2CSC2)cc1)c1ccccc1,i
CCOc1ccc(C(=O)N(CN2CCCC2=O)c2ccc(C)cc2)cc1,i
Cn1c(=O)[nH]c(=O)c2c1nc(CN1CCN(c3ccccc3F)CC1)n2CCc1ccccc1,i
O=C(c1cccc(S(=O)(=O)Nc2ccc(Br)cc2)c1)N1CCCC1,i
S=C(NCCCN1CCOCC1)Nc1ccc(Cl)cc1Cl,i
C=CCn1c(SCCOc2ccc(OC)cc2)nnc1C(NC(=O)c1ccc(OC)cc1)C(C)C (stereo not given),i
O=[N+]([O-])c1ccc2oc(-c3cccc(O)c3)nc2c1,i
CCCn1c(=O)c2sccc2n2c(CCCC(=O)NCc3ccco3)nnc12,i
Cc1cccc(NC(=S)NNC(=S)NC2CCCCC2)c1C,i
Cc1cc(NC(=O)c2cc([N+](=O)[O-])cc([N+](=O)[O-])c2C)no1,i
CCOc1ccc(C(=O)Nc2ccccc2OC(F)F)cc1,i
CNC(=O)c1c(C)[nH]c(=S)c(C#N)c1-c1ccco1,i
CCN(c1ccccc1)S(=O)(=O)c1ccc(C(=O)N(CCN(C)C)c2nc3c(F)cc(F)cc3s2)cc1,i
CCOC(=O)C1(CC2CC2)CCN(Cc2cc(Cl)c(O)c(OC)c2)CC1,i
O=C(CSc1nnnn1-c1cccc2ccccc12)N1CCOCC1,i
O=C(O)CCc1ccc(-c2ccc(F)cc2)n1Cc1ccco1,i
CN1CCc2c(sc3nc(NN)n(Cc4ccccc4)c(=O)c23)C1,i
CC(=O)Nc1cccc(C(=O)NC2CCCc3c2cnn3-c2cc(C)cc(C)c2)c1 (stereo not given),i
O=C(OCc1cc(=O)n2c(n1)sc1ccccc12)c1cccc(O)c1,i
Cc1cccc(OCc2nnc(SCC(=O)c3ccccc3)o2)c1,i
NC(=O)c1cccc(-c2cccc(OC(=O)NC3CCCCC3)c2)c1,i
Cc1cccc(-n2ncc(C#N)c2N)c1,i
CS(=O)(=O)Nc1ccc(C(=O)NC2CC3CCC2C3)cc1 (stereo not given),i
Fc1ccc(OCCOCCNCC2CCCO2)cc1 (stereo not given),i
COc1ccc(CNC(=O)C(C)N(Cc2ccco2)C(=O)c2snc(C(N)=O)c2N)cc1 (stereo not given),i
CN(c1ccc(C(=O)NCCSCc2ccc(Cl)cc2)cc1)S(=O)(=O)c1ccccc1,i
CN(Cc1c(C(=O)N/N=C/c2ccccc2F)nnn1-c1nonc1N)c1ccccc1,i
CC(C)Cn1[nH]c2c3c(ccc2c1=O)C(=O)c1ccccc1C3=O,i
O=S(=O)(c1ccccc1)N1CCN(S(=O)(=O)c2ccc(F)cc2)CC1,i
COc1ccc(CCNC(=O)c2cc3c(=O)n(C)c4ccccc4c3n2C)cc1OC,i
Cc1cccc(NC(=O)CSc2n[nH]c(-c3ccncc3)n2)c1,i
O=C(Nc1ccc(F)cc1F)c1ccccc1NC(=O)C1CC=CCC1C(=O)O (stereo not given),i
COc1cc(/C=C/C(=O)OCC(=O)Nc2cccc(Oc3ccccc3)c2)ccc1O,i
Clc1ccc(Nc2ncnc3c2nnn3Cc2ccccc2)cc1,i
CCOC(=O)Nc1ccc(OCc2nnc3c4ccccc4c(C)nn23)cc1,i
Cc1csc(C(=O)O)c1-n1cccc1,i
O=C(O)CSc1c2c(nc3cc(C(=O)Nc4ccc(F)c(Cl)c4)ccc13)CCCC2,i
COc1ccc(CNC(=O)C(OC(=O)c2ccco2)c2ccc(F)cc2)cc1 (stereo not given),i
CCc1n[nH]c(=S)n1/N=C/c1ccc(N(C)c2ccccc2)cc1,i
Cc1cc(OCC(=O)Nc2ccc(S(=O)(=O)NC3=NCCCCC3)cc2)c(C(C)C)cc1Cl,i
# (further entries)
SMILES,CHT block
O=C(CCC1CC(=O)Nc2ccccc21)NCc1ccccc1 (stereo not given),i
NNC(=O)c1nnn(-c2nonc2N)c1-c1cccs1,i
O=C(NCc1ccc2c(c1)OCO2)c1c[nH]c2ccc(S(=O)(=O)N3CCOCC3)cc2c1=O,i
Cc1ccccc1OCC(=O)Nc1cccc(NC(=O)c2ccco2)c1,i
O=C(N/N=C/c1ccccn1)c1c[nH]c2ccccc12,i
COc1ccc(OC)c(NC(=O)N2CCCC(CNS(=O)(=O)c3cccs3)C2)c1 (stereo not given),i
Nn1cc(-c2ccccc2)nc1SCC(=O)Nc1ccc2c(c1)OCO2,i
CCOC(=O)CS(=O)(=O)c1ccc(C(F)(F)F)cn1,i
CCOC(=O)c1c(C)[nH]c(C(=O)COC(=O)CN2C(=O)C3CCCCC3C2=O)c1C (stereo not given),i
Cc1cccc(NC(=S)NCc2ccccc2Cl)c1C,i
CCOc1ccc(N2C(=O)C3CCCN3C2=O)cc1 (stereo not given),i
Cc1ccc2oc(Nc3nc(C)c(C)c(C)n3)nc2c1,i
CC1Cc2cc(S(=O)(=O)N3CCN(C)CC3)ccc2N1C(=O)C1CC1 (stereo not given),i
O=[N+]([O-])c1ccc(N2CCN(S(=O)(=O)c3ccccc3)CC2)cc1NCc1ccco1,i
CCOC(=O)c1csc(NC(=O)CSc2nnnn2CC)n1,i
CN(C)S(=O)(=O)c1cccc(COC(=O)CN2CCCCCC2=O)c1,i
CCOC(=O)C(=O)Nc1ccc([N+](=O)[O-])cc1OC,i
CCOC(=O)N1CCC(c2cc(=O)n3[nH]c(C)c(-c4ccc(F)cc4)c3n2)CC1,i
COc1ccc(/C=C(/NC(=O)c2ccccc2Cl)C(=O)O)cc1,i
O=c1c2ccccc2c(/C=N/c2ncn[nH]2)c(O)n1Cc1ccccc1,i
C/C(=N/Nc1ccc(Cl)cc1)c1cnnc(-c2ccccc2)n1,i
O=C(CCS(=O)(=O)c1ccc(Br)cc1)N1CCN(c2ccc(Cl)cc2)CC1,i
CCOc1ccccc1C(=O)NCC(=O)NNC(=O)CN(C)S(=O)(=O)c1ccc(Cl)cc1,i
CC12CCC3c4ccc(O)cc4CCC3C1CC(O)C2O (stereo not given),i
O=C(O)CCn1ccc2cc(S(=O)(=O)N3CCCCCC3)ccc21,i
O=C(c1ccc(Br)s1)N1CCN(Cc2ccc3c(c2)OCO3)CC1,i
Cn1cccc1CNC(=O)Nc1ccc(Cl)cc1,i
O=C(O)C1=C[C@@H](C2CC2)C[C@@H](OCc2ccc(CO)cc2)O1,i
NNC(=O)CSc1nc(-c2ccccc2)nc2c1CCCC2,i
COc1ccc(NC(=O)CCN2CCN(S(=O)(=O)c3cc(Cl)ccc3OC)CC2)cc1,i
O=C(NCCN1CCOCC1)c1cccc(Br)c1,i
Cc1ccc(SCCC(=O)Nc2ccccc2C(=O)N2CCOCC2)cc1,i
O=C(NCCN1CCOCC1)c1ccc2ccccc2n1,i
O=C(Cn1cnc2ccccc2c1=O)Nc1ccccc1N1CCOCC1,i
CC(CCc1ccccc1)NC(=O)CCN1N=C(c2ccccc2)CCC1=O (stereo not given),i
CCOC(=O)N1CCN(c2ccc3nnnn3n2)CC1,i
CC(C)c1ccc(O)c(NC(=S)NC(=O)c2ccc3c(c2)OCO3)c1,i
COc1ccc(C(c2sc3nc(C)nn3c2O)N2CCCCC2)cc1 (stereo not given),i
COc1ccc(-n2nc(C(=O)NCC(=O)Nc3cccc(NC(C)=O)c3)c3ccccc3c2=O)cc1,i
Cc1ccc(C(=O)NC(=S)Nc2cccc(NC(=O)c3ccccc3Cl)c2)cc1[N+](=O)[O-],i
O=C(c1ccc(-n2cccc2)cc1)N1CCN(Cc2ccccc2)CC1,i
CC1(C)C(=O)C2(CCCC2)C(=O)OC1c1ccco1 (stereo not given),i
CCOn1c(=O)c(-c2cc(OC)ccc2OC)[n+]([O-])c2ccccc21,i
CCOC(=O)N1CCC(NC(=O)CCc2cn(C)c3ccccc23)CC1,i
CCN(CC)Cc1c(O)ccc2c(=O)c(Oc3ccccc3OC)coc12,i

# 17 structures already listed, ordered by formula weight, lowest first:
SMILES,CHT block
CC1(C)C(=O)C2(CCCC2)C(=O)OC1c1ccco1 (stereo not given),i
Cn1cccc1CNC(=O)Nc1ccc(Cl)cc1,i
CCOC(=O)N1CCN(c2ccc3nnnn3n2)CC1,i
O=C(O)C1=C[C@@H](C2CC2)C[C@@H](OCc2ccc(CO)cc2)O1,i
O=C(NCCN1CCOCC1)c1cccc(Br)c1,i
NNC(=O)CSc1nc(-c2ccccc2)nc2c1CCCC2,i
CCOn1c(=O)c(-c2cc(OC)ccc2OC)[n+]([O-])c2ccccc21,i
CCOC(=O)N1CCC(NC(=O)CCc2cn(C)c3ccccc23)CC1,i
CC(C)c1ccc(O)c(NC(=S)NC(=O)c2ccc3c(c2)OCO3)c1,i
O=C(Cn1cnc2ccccc2c1=O)Nc1ccccc1N1CCOCC1,i
CCN(CC)Cc1c(O)ccc2c(=O)c(Oc3ccccc3OC)coc12,i
CC(CCc1ccccc1)NC(=O)CCN1N=C(c2ccccc2)CCC1=O (stereo not given),i
Cc1ccc(SCCC(=O)Nc2ccccc2C(=O)N2CCOCC2)cc1,i
O=C(c1ccc(Br)s1)N1CCN(Cc2ccc3c(c2)OCO3)CC1,i
COc1ccc(NC(=O)CCN2CCN(S(=O)(=O)c3cc(Cl)ccc3OC)CC2)cc1,i
Cc1ccc(C(=O)NC(=S)Nc2cccc(NC(=O)c3ccccc3Cl)c2)cc1[N+](=O)[O-],i
COc1ccc(-n2nc(C(=O)NCC(=O)Nc3cccc(NC(C)=O)c3)c3ccccc3c2=O)cc1,i

# Reprinted at random: two entries already listed, in no set order.
SMILES,CHT block
O=C(c1ccc(-n2cccc2)cc1)N1CCN(Cc2ccccc2)CC1,i
CCOn1c(=O)c(-c2cc(OC)ccc2OC)[n+]([O-])c2ccccc21,i

# (further entries)
SMILES,CHT block
COc1ccc2ccc(OC)c(/C=N/n3cnnc3)c2c1,i
O=C(NCCO)c1ccc(-c2nnc(N3CCOCC3)c3ccccc23)cc1,i
OCC1C2c3ccccc3C(c3ccccc32)C1CO (stereo not given),i
COCC(C)n1c(C)cc(C(=O)COC(=O)/C=C/c2cccc(F)c2)c1C (stereo not given),i
COc1ccc2oc(C(=O)Nc3ccc(N4CCOCC4)cc3)c(C)c2c1,i
O=S(=O)(c1ccc(F)cc1)N1CCN(c2ncnc3c2cnn3-c2ccccc2)CC1,i
CCNC(=S)NS(=O)(=O)c1ccc(C)cc1,i
O=S(=O)(NCc1cccnc1)c1ccc(Cl)cc1,i
COc1ccccc1CCc1nnc(CCC(=O)NCCOc2cccnc2)o1,i
COC(=O)CSc1nnc(CNC(=O)Cc2ccccc2)n1C,i
CCc1ccc(NC(=O)C2CCCN2C(=O)NC2CCCCC2)cc1 (stereo not given),i
COc1ccc(N2Cc3ccccc3/C2=N\C(=O)Nc2ccccc2)cc1,i
COc1ccc(C2C3=C(CC(C)(C)CC3=O)Nc3c2c(=O)[nH]c2nc(C)nn32)cc1 (stereo not given),i
COCCn1c(C)cc(/C=C2/SC(=O)N(CC(=O)N3CCCC3)C2=O)c1C,i
CCOC(=O)N1CCC(n2c(SCC(=O)OCc3ccccc3)nc3ccsc3c2=O)CC1,i
O=C(O)c1ccc(NC(=O)C2CCCCC2)cc1,i
COC(=O)[C@H](CCSC)NC(=O)NCc1ccccn1,i
Cc1ccccc1N1CCN(CC(=O)Nc2nc(C)c(C(=O)N(C)C)s2)CC1,i
Nn1c(SCC(=O)NCC2CCCO2)nnc1-c1ccc(OC(F)F)cc1 (stereo not given),i
O=C1c2cccnc2C(=O)N1Cc1ccc(S(=O)(=O)NCc2ccco2)s1,i
COc1ccc(C2SC[C@@H](C(=O)O)N2C(C)=O)cc1 (stereo not given in full),i
CCOC(=O)N/N=C\c1cccc(OC)c1,i
CCC(C)(C)NC(=O)Cc1ccc(OC)c(OC)c1,i
COc1ccc(CC(=O)N2CCN(c3ccccc3)CC2)cc1OC,i
C=CCN(CC=C)C(=O)CN1C(=O)NC(C)(c2ccc3cc(OC)ccc3c2)C1=O (stereo not given),i
COc1cccc(-n2nnnc2SCC(=O)c2ccc(NC(C)=O)cc2)c1,i
CCCc1cc(=O)oc2c(C)c(OCc3nn[nH]n3)ccc12,i
C#CCNC(=O)C1CCN(c2cc(C)nc(-c3ccccc3)n2)CC1,i
COc1cc(OC)cc(C(=O)Nc2nc(-c3ccccc3)c(-c3ccccc3)o2)c1,i
CCOc1ccc(N2CC(O)Cn3c2nc2c3c(=O)n(CCCc3ccccc3)c(=O)n2C)cc1 (stereo not given),i
CC(=O)Nc1ccc(NC(=O)CSc2ncnn2-c2ccccc2)cc1,i
O=C(/C=C/c1ccc(Br)cc1)Nc1ccc(S(=O)(=O)Nc2ncccn2)cc1,i
COc1cccc(CC(CC(=O)O)C(=O)Nc2cc(C)ccc2C)c1 (stereo not given),i
O=S(=O)(Cc1ccccc1)Nc1cccc(F)c1,i
Cc1ccc(N(CC(=O)NC2CCCCC2C)S(=O)(=O)c2c(C)noc2C)cc1 (stereo not given),i

# An excerpt; most or all hits stand in other tables.
